Screening data deposited in PubChem BioAssay by several laboratories.
Proteasome disasm: blocks ATP-dependent breakdown of the yeast 26S proteasome; anti-FLAG beads, GFP-proteasome disassembly, flow cytometry; inhibition of disassembly, % (test concentration not listed); 24,000 tested, 0.2% active; AID 751;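 active means above 40%; inconclusive means likely self-fluorescent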;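 further: plate controls were ATP control with full disassembly for no effect and ATP-gamma-S intact proteasomes for full effect; higher percent means more bead fluorescence retained so stronger block of disassembly; stock transfer was 100 nL into about 10 µL; wells with too few beads may also be inconclusive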
VCAM-1 rise: enhancers of VCAM-1 display on endothelial cells, cell-based, plate reader, pooled HUVEC, TNFa stimulus (AID 455); 10,000 tested, 0.2% active; HUVEC TNFa-induced VCAM-1 immunofluorescence, plate reader; numbers were filed only for top-ranked candidate wells; augmentation, % at 5 µM;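 active means a compound raising TNF-alpha-driven VCAM-1 surface staining, with its hit status upheld on visual or statistical review; inactive means the rest, including hits rejected on review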;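 further: 0% = TNFa with vehicle and 100% = strongest image-checked hit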
* hit, by the source's call; i = inactive; ? = inconclusive; . = no result given. Some of the compounds tested, so the mix of outcomes need not match the whole.

Sample of the layout (15 entries):
SMILES	Proteasome disasm	VCAM-1 rise
CC(=O)C1C(c2cccc(F)c2)NC(=O)NC1(O)C(F)(F)F (stereo unspecified)	0.1	.
COc1cccc(N(C(=O)c2ccn[nH]2)C2(C(=O)Nc3c(C)cccc3C)CCCCC2)c1	-0.9	.
Cc1noc(NS(=O)(=O)c2ccc(N/C=C/C(=O)c3cccnc3)cc2)c1C	0.7	.
O=C1NC(c2ccco2)Nc2ccccc21 (stereo unspecified)	0.7	i
Brc1ccccc1Cn1c(-c2cncs2)nc2ccccc21	-0.2	.
Cc1c(C(=O)OCCOC(C)C)[nH]c2c1C(=O)CC(C)(C)C2	-2.6	.
COc1ccccc1NC(=O)CN1CCN(c2ccc(Cl)cc2)CC1	-0.1	.
O=C(CCn1nc(-c2ccc(Cl)cc2)ccc1=O)N1CCN(c2ccccn2)CC1	-0.9	i
CCN(CC)CCNC(=O)Cc1c(C(=O)O)n(CC)c2ccccc12	0.0	.
COc1cccc(CNC(=O)C2CCN(c3cnccn3)CC2)c1	-1.4	i
COc1ccc(-c2noc(CCC(=O)N3CCN(c4cccc(C(F)(F)F)c4)CC3)n2)cc1	1.0	.
O=C(O)c1ccccc1Nc1cccc(C(F)(F)F)c1	1.1	i
O=C(Nc1ccccn1)Nc1cccs1	0.1	.
CC(C)Oc1ccc(C2CC(=O)NC3=C2C(=O)CCC3)cc1 (stereo unspecified)	-3.3	.
O=S(=O)(Nc1ccc(Cc2ccncc2)cc1)N1CCCC1	-1.9	i

Results, from the first entry:
SMILES	Proteasome disasm	VCAM-1 rise
CC(=O)C1C(c2cccc(F)c2)NC(=O)NC1(O)C(F)(F)F (stereo unspecified)	0.1	.
COc1cccc(N(C(=O)c2ccn[nH]2)C2(C(=O)Nc3c(C)cccc3C)CCCCC2)c1	-0.9	.
Cc1noc(NS(=O)(=O)c2ccc(N/C=C/C(=O)c3cccnc3)cc2)c1C	0.7	.
O=C1NC(c2ccco2)Nc2ccccc21 (stereo unspecified)	0.7	i
Brc1ccccc1Cn1c(-c2cncs2)nc2ccccc21	-0.2	.
Cc1c(C(=O)OCCOC(C)C)[nH]c2c1C(=O)CC(C)(C)C2	-2.6	.
COc1ccccc1NC(=O)CN1CCN(c2ccc(Cl)cc2)CC1	-0.1	.
O=C(CCn1nc(-c2ccc(Cl)cc2)ccc1=O)N1CCN(c2ccccn2)CC1	-0.9	i
CCN(CC)CCNC(=O)Cc1c(C(=O)O)n(CC)c2ccccc12	0.0	.
COc1cccc(CNC(=O)C2CCN(c3cnccn3)CC2)c1	-1.4	i
COc1ccc(-c2noc(CCC(=O)N3CCN(c4cccc(C(F)(F)F)c4)CC3)n2)cc1	1.0	.
O=C(O)c1ccccc1Nc1cccc(C(F)(F)F)c1	1.1	i
O=C(Nc1ccccn1)Nc1cccs1	0.1	.
CC(C)Oc1ccc(C2CC(=O)NC3=C2C(=O)CCC3)cc1 (stereo unspecified)	-3.3	.
O=S(=O)(Nc1ccc(Cc2ccncc2)cc1)N1CCCC1	-1.9	i
O=C(NC1CCCCC1)c1cc2nc(-c3ccco3)cc(C(F)(F)F)n2n1	-1.3	i
Cn1nc(-c2ccc(Cl)cc2)c2cc(C(=O)NC3CC3)sc21	1.1	.
CCC1Oc2ccccc2N(CC(=O)NCCN2C(C)CCCC2C)C1=O (stereo unspecified)	0.8	.
Cc1ccc(-c2cc(C(=O)O)n[nH]2)o1	0.4	i
CCOCCCNC(=O)C1CC(=O)N(C2CCCC2)C1 (stereo unspecified)	-0.1	i
Cc1ccc(NS(=O)(=O)c2ccc3c(c2)c(=O)n(C)c(=O)n3C)cc1F	-0.6	.
COc1cc(CN2CCSCC2)cc(OC)c1OC	3.3	i
COc1ccc(Cn2c(C)nc3c(c2=O)c2nc4ccccc4nc2n3Cc2ccco2)cc1	6.5	i
Cn1c(=O)c2c(nc(SCC(=O)NC3CCCCC3)n2C)n(C)c1=O	0.2	.
COc1ccccc1N1CCN(C(=O)CN(Cc2ccc(Cl)cc2)S(C)(=O)=O)CC1	-0.6	i
The results go on:
SMILES	Proteasome disasm	VCAM-1 rise
Cc1nnc(SCc2ccccc2F)n1NCc1cccs1	-2.8	i
O=C(CSc1nc2cc(Cl)ccc2s1)N1CCN(C(=O)c2ccco2)CC1	1.4	i
CCOc1ccc(-n2cc(C(=O)NCc3ccco3)c3cc(OC)c(OC)cc3c2=O)cc1	0.9	.
CCC1CCCCN1CCCNC(=O)c1ccc(CS(=O)(=O)Cc2ccccc2F)o1 (stereo unspecified)	0.9	i
COc1ccccc1C(=O)n1nc(-c2cccnc2)nc1N	-0.9	.
O=c1oc2ccccc2c(N2CCCCC2)c1CN1CCCCC1	0.0	i
O=C(c1ccccc1Br)N1CCN(c2ccccc2)CC1	1.9	i
Cc1cccc(N2CCN(S(=O)(=O)c3ccc4c(c3)CCN4C(=O)CCC(=O)O)CC2)c1C	-8.6	.
CCCSc1nnc(-c2ccccc2NC(=O)CC)c(=O)[nH]1	0.7	i
O=C(CCS(=O)(=O)c1cccs1)N1CCCC1	0.5	.
CCOC(=O)C1CCN(C(=O)C2CCN(S(=O)(=O)c3cc(Cl)ccc3Cl)CC2)CC1	0.2	i
CCOCCCNC(=O)CCCn1nc(C)n2c(cc3sccc32)c1=O	-1.0	.
CNCCC(Oc1ccc(C(F)(F)F)cc1)c1ccccc1 (stereo unspecified)	1.2	i
CCN1C(=O)C2(C(C#N)=C(N)Oc3cc(C)oc(=O)c32)c2ccccc21 (stereo unspecified)	0.4	.
CN(C)C(=O)N1CCC(C(=O)NCC2CCCO2)CC1 (stereo unspecified)	-0.2	.
c1ccc(-n2cnc3cc(NCc4ccccn4)ccc32)cc1	-3.6	i
Cc1ccccc1NC(=O)C1CCCN(S(=O)(=O)c2c(C)noc2C)C1 (stereo unspecified)	-1.5	.
COc1ccc(-c2nnc(SCC(=O)N3CCCCC3)o2)cc1OC	0.8	i
O=C1C2C3C=CC(C3)C2C(=O)N1CNc1ccc(O)cc1 (stereo unspecified)	1.4	i
O=C(CN1CCN(Cc2ccccc2F)C1=O)NCc1cccnc1	0.1	i
CCOC(=O)CCc1c(C)nc2cc(-c3ccc(F)cc3)[nH]n2c1=O	0.5	i
O=C1CCCN1CCCNc1ncnc2c1[nH]c1ccc(Cl)cc12	3.4	i
O=C(CSc1nc2ccccc2c(=O)n1C1CC1)NCc1ccccc1	-1.5	.
Cn1c(Cn2c(=O)sc3ccccc32)nnc1SCC(=O)N1CCCC1	0.5	.
Cc1nnc(SCc2nc3ccccc3s2)n1-c1ccccc1	?	i
(continued)
SMILES	Proteasome disasm	VCAM-1 rise
COc1ccc(-c2cn3cccnc3n2)cc1NC(=O)c1ccc(Br)o1	1.8	.
CCn1c(N)c(C(=O)NCC2CCCO2)sc1=S (stereo unspecified)	1.0	.
O=S(=O)(c1ccccc1)N1CCSC1c1ccco1 (stereo unspecified)	1.6	i
CC1=C(C(=O)Nc2ccccc2)C(c2cccnc2)n2nc(-c3cccnc3)nc2N1 (stereo unspecified)	-3.2	.
CC(=O)N1c2ccccc2NC2=C(C(=O)CCC2)C1c1ccc(F)cc1 (stereo unspecified)	-0.8	.
COc1ccc(N(CC(=O)Nc2cc(C)ccc2C)S(=O)(=O)c2c(C)nn(C)c2C)cc1	0.3	i
COc1ccccc1-c1nc(-c2ccccn2)no1	-1.6	.
Cc1ccc2c(c1)NCC(C(=O)NCc1ccccc1)O2 (stereo unspecified)	-1.6	.
O=C(CN1C(=O)C2C3C=CC(C3)C2C1=O)N1CC=C(c2ccccc2)CC1 (stereo unspecified)	-1.1	.
C=CCNC(=O)c1scc2c1CCCC2	-1.7	.
CCc1ccccc1NC(=O)COC(=O)C1CC(=O)N(c2ccc(F)cc2)C1 (stereo unspecified)	-2.0	.
CCOC(=O)C1=C(c2ccccc2)N2CCS(=O)(=O)N=C2S1	-9.4	18.4
COc1ccccc1N1CCN(S(=O)(=O)CC23CCC(CC2=O)C3(C)C)CC1 (stereo unspecified)	-0.6	i
Cn1cnnc1SCC(=O)OCN1C(=O)c2ccccc2C1=O	1.2	.
Cc1ncoc1C(=O)Nc1cccc(Cl)c1	0.2	.
COC(=O)c1ccc(CSc2ccccc2C)o1	-2.5	.
COc1ccc(NC(=O)N2CCC(O)(c3cccnc3)CC2)c(OC)c1	-0.9	i
CCN(CCCNC(=O)C1CCN(S(=O)(=O)c2cccc3nonc23)CC1)Cc1ccccc1	1.1	i
OC(CCN1CCCCC1)(c1ccccc1)C1CCCCC1 (stereo unspecified)	-0.7	i
O=c1cc(N2CCCC2)[nH]c(=O)n1-c1ccc(Cl)cc1	-1.8	.
Cc1cc(C)cc(N(CC(=O)NC2CCC(C)CC2)S(=O)(=O)c2c(C)noc2C)c1 (stereo unspecified)	-0.5	i
COc1ccc(CN2CC(C(=O)NCCCN3CCCCCC3)CC2=O)cc1 (stereo unspecified)	0.3	.
COc1ccccc1N1CCN(C(=O)c2cc(-c3cccs3)on2)CC1	-0.4	.
CSc1oc(-c2ccc(F)cc2)nc1S(=O)(=O)c1ccccc1	0.6	.
O=C1c2ccccc2C(=O)N1CCCc1nc(-c2ccc(Cl)cc2)no1	0.1	.
Continuation:
SMILES	Proteasome disasm	VCAM-1 rise
Cc1ccc2nc(C)c(C)nc2c1N	-2.3	.
CC(=O)c1c(C)[nH]c(C(=O)Nc2c(C)n(C)n(-c3ccccc3)c2=O)c1C	-0.4	i
CCOC(=O)C1C2C=CC3(CN(Cc4ccco4)C(=O)C13)O2 (stereo unspecified)	-0.6	i
Cc1ccc2[nH]c(C)c(CN(C)C3CCN(C)CC3)c(=O)c2c1	0.7	.
COC(=O)C1=C(C(=O)c2ccccc2)C(c2cccs2)n2nnnc2N1 (stereo unspecified)	0.5	.
CC(=O)Nc1cc(NC(C)=O)cc(C(=O)NC(C)(C)C)c1	0.2	.
O=C(C(Cc1ccccc1)n1cccc1)N1CCc2ccccc21 (stereo unspecified)	-0.5	.
COC(=O)c1cc(=O)[nH]c(SCc2cccc(C)c2)n1	2.8	.
Cn1c(=O)cc(SCC(=O)N2CCN(C3CCCCC3)CC2)c2ccccc21	-0.3	.
CCCCCCSc1cc(C)nc2ncnn12	-0.9	.
COc1cc2c(cc1OC)-c1nncn1C(C)(C)C2	-1.7	.
O=C(OCCCN1C(=O)c2ccccc2C1=O)c1ccco1	1.1	i
FC(F)(F)c1nnc2ccc(-n3ccnc3)nn12	-1.2	.
CCCC(CCC)C(=O)NCCN1CCOCC1	-1.1	i
O=C(NCc1ccccc1Cl)C1CCN(S(=O)(=O)N2CCCCCC2)CC1	-0.4	.
CC(NC(=O)c1ccc(N(C)C)cc1)C(c1cccs1)N1CCN(C)CC1 (stereo unspecified)	0.1	.
C=CCn1cc(C(=O)NCCCOC)c(=O)c2cc(S(=O)(=O)N(CC)CC)ccc21	-1.3	.
CCN(CC)c1cc2nonc2c2nonc12	-1.1	.
CCCCCn1c(CNC(=O)c2cccs2)nc2ccccc21	0.5	.
CCC(C)(NC(=O)CNC(C)=O)C(=O)NC1CCCCC1 (stereo unspecified)	-0.1	i
Cc1ccc(Cn2nnc3c(=O)n(CC(=O)NCC4CCCO4)cnc32)cc1 (stereo unspecified)	-0.6	i
CCCN1CCN(CCCNC(=O)Cn2nc(-c3ccccc3)ccc2=O)CC1	-0.4	.
COc1ccc(Cl)cc1S(=O)(=O)N1CCN(CC(=O)C(C)(C)C)CC1	-1.4	.
COc1ccc(C(=O)NCC(=O)NC2=NCCS2)cc1	-1.2	i
N=c1c(S(=O)(=O)c2ccc(Cl)cc2)cc2c(=O)n3ccccc3nc2n1CCN1CCOCC1	-1.5	.
Next results.
SMILES	Proteasome disasm	VCAM-1 rise
CCS(=O)(=O)NCCc1csc(C)n1	0.8	.
CCOCCCn1c(=S)[nH]c2ncccc2c1=O	-0.7	.
Cn1c(=O)cc(OCCCC(=O)NCc2ccccn2)c2ccccc21	-1.2	.
Cc1nc2sc(C(c3ccc(Cl)cc3)N3CCN(c4ccccc4F)CC3)c(O)n2n1 (stereo unspecified)	-0.8	.
CCOC(=O)N1CCN(C(=O)CSc2nnc(Cc3ccccc3)o2)CC1	0.0	i
O=C(O)c1cc(=O)cc(C(=O)O)[nH]1	0.9	i
COc1ccccc1NC(=O)CSc1nnc(-c2ccncc2)n1CC1CCCO1 (stereo unspecified)	-0.2	i
O=C(c1cccs1)c1cn(CC(=O)N2CCc3ccccc3C2)c2ccccc12	-1.8	i
N#Cc1c(N)nc(N2CCCC2)c(C#N)c1-c1ccc(Cl)cc1	-0.5	.
CCCCn1nc(C(=O)N2CCc3ccccc32)c2ccccc2c1=O	4.2	i
Cc1ccc(NC(=O)CCn2c(=O)oc3ccccc32)c(C)c1	0.9	.
CCOC(=O)c1cnc2c(OC)cccc2c1N1CCN(c2ccc(OC)cc2)CC1	-1.6	i
COc1cc(C(N)=O)ccc1OCc1ccccc1	1.8	i
O=C(CSc1nnc2sc3ccccc3n12)c1ccco1	0.4	i
CC(=O)Nc1ccc(S(=O)(=O)NC(CC(=O)O)c2ccc(OC(C)C)cc2)cc1 (stereo unspecified)	-0.8	.
CCOc1ccccc1N1CCN(c2nc3ccccc3nc2C(C#N)C(=O)OC)CC1 (stereo unspecified)	1.8	i
COc1cc(OC)c(N(C)C(=O)CCNC(=O)Cn2cnc3ccccc3c2=O)cc1Cl	-0.1	.
O=C(Nc1nsc(-c2ccccc2)n1)c1ccncc1	-0.1	.
COc1ccc(S(=O)(=O)NCCC(=O)NC2CCCCCCC2)cc1	-0.9	i
CC(=O)O[C@]1(C(C)=O)CC[C@H]2[C@@H]3C=C(C)C4=CC(=O)CC[C@]4(C)[C@H]3CC[C@@]21C	-0.4	i
CCOC(=O)c1cn(CC)c2cc(N3CCOCC3)c(F)cc2c1=O	-2.5	i
O=C(CCc1nc2ccccc2[nH]1)NCc1ccc2c(c1)OCO2	-0.4	.
